Vaccinia Venus: vaccinia inhibition (Venus reporter) | Vaccinia virus Venus reporter expression, fluorescence | AID 720580 | 330,000 compounds, 0.46% hits | Potency, µM (series often up to 36.5 µM), for inactives: at the top dose activity change, negative = inhibition, usual class: inhibitors; active means well fitted inhibition curve with a large enough effect; inconclusive means small, poorly fitted or top-dose-only effect; inactive means no such curve, though single readings can be large or run the other way; tested in A549 cells; further: nearly all actives have a fitted effect of over 30% in size; inactives centre near -10
VACV mCherry inh: inhibitors of vaccinia virus infection (mCherry reporter signal) | Vaccinia virus mCherry reporter infection, fluorescence; about a quarter of the inactives have no number | Potency, µM (top dose mostly 36.5 µM), for inactives: top-dose activity change, negative = inhibition, hits mostly inhibitors | 310,000 compounds, 0.63% hits; active = well fitted inhibition curve with a large enough effect; inconclusive = small, poorly fitted or top-dose-only effect; inactive = no such curve, though single readings can be large or run the other way; tested in A549 cells; further: nearly all actives have a fitted effect of over 35% in size; inactives centre near -10
Starred values were filed as active, the others as inactive; i = inactive; ? = inconclusive; / = not tested or not shown; & = joins results of further samples; [ ] = another dose, or the depositor's remark. On the % scale 0 is the no-effect control and ±100 the full control effect; potency means the concentration at half of the fitted maximal effect.

smiles,Vaccinia Venus,VACV mCherry inh
O=C(NCc1ccccc1)C1c2ccccc2OCC(=O)N1CCCN1CCOCC1 (centres undefined),5%,40%[activator]
CCN1CCCC1CNC(=O)C1CCN(Cc2nc(-c3cccc(Br)c3)oc2C)CC1 (centres undefined),-27%,i
CCOc1ccc(N(C(=O)c2snc(C(N)=O)c2N)C(C(=O)NC2CCCC2)c2ccncc2)cc1 (centres undefined),4%,-21%
COc1ccc(NC(=O)CN2C(=O)c3ccccc3S2(=O)=O)cc1S(=O)(=O)N1CCOCC1,-8%,-12%
CCCN(CCC)Cc1cc(=O)oc2ccc3ccccc3c12,-18%,-5%
Cn1cccc1Cc1nnc(SCC(=O)Nc2ccc(F)cc2)n1-c1ccc(F)cc1,-7%,-4%
COc1ccc(NC(=O)c2cccnc2Nc2ccc(OC)cc2)cc1,?,/
c1ccc(CNc2nc(-c3cccs3)nc3ccccc23)nc1,-19%,-24%
COc1cccc(C(=O)NN2C(=S)N(c3ccccc3)C(=O)C2CC(N)=O)c1 (centres undefined),-10%,i
CONC(=O)Nc1ccccc1[N+](=O)[O-],-8%,i
COCCCNC(=O)CS(=O)(=O)Cc1nc(-c2ccccc2C)oc1C,-15%,-18%
O=C(NCc1ccc(Cl)cc1)c1ccc(CNS(=O)(=O)c2ccc(F)cc2)cc1,-12%,-14%
COc1ccc(N(C2CSC2)S(=O)(=O)c2ccccc2)cc1,-19%,-18%
COc1cc(C)ccc1OCc1cc(C(=O)NCc2ccncc2)no1,-22%,-8%
CC(=O)c1cc(-c2nc3ccccc3n2C)n(C)c1,-2%,-10%
Cc1cccc(S(=O)(=O)Nc2ccc(-c3nc4ccc(C)cc4s3)cc2)c1,-23%,-24%
Cc1cc(C(=O)N/N=C/c2ccncc2)c(C)o1,-1%,-14%
Cc1nnc(NC(=O)c2cccn(Cc3cccc([N+](=O)[O-])c3)c2=O)s1,-23%,-25%
COC(=O)C1=C(c2ccc(F)cc2F)C[C@@H]2CC[C@H]1N2C(=O)NCCOc1ccccc1,-20%,?
Cc1noc(C)c1CSc1ccccc1C(=O)N1CCN(c2ccccc2)CC1,-11%,-18%
CC[C@]12c3[nH]c4ccc(Cl)cc4c3CCN1C(=O)[C@@H](CC(=O)NCCC1=CCCCC1)C[C@@H]2C(=O)N1CCN(C(=O)C2CC2)CC1,?,-18%
COc1ccc(N(CC(=O)N/N=C/c2ccc(N(C)C)cc2)S(=O)(=O)c2ccccc2)cc1,-24%,?
COc1ccc(N2CCN(C(=O)c3ccc(N(C)S(=O)(=O)c4ccc(C)cc4)cc3)CC2)cc1,-22%,-25%
CN1CCN(C(=O)c2ccc3c(c2)OCCO3)CC1,-4%,?
COc1cccc2c1cc1c(=O)n(CC(=O)NC3CCCCC3)nc(C)n12,-3%,-13%

Given with each value named: entries from further up
COCCCNC(=O)CS(=O)(=O)Cc1nc(-c2ccccc2C)oc1C
  Vaccinia Venus: -15%
  VACV mCherry inh: -18%

O=C(NCc1ccc(Cl)cc1)c1ccc(CNS(=O)(=O)c2ccc(F)cc2)cc1
  Vaccinia Venus: -12%
  VACV mCherry inh: -14%

COc1ccc(N(C2CSC2)S(=O)(=O)c2ccccc2)cc1
  Vaccinia Venus: -19%
  VACV mCherry inh: -18%

COc1cc(C)ccc1OCc1cc(C(=O)NCc2ccncc2)no1
  Vaccinia Venus: -22%
  VACV mCherry inh: -8%

More results:
smiles,Vaccinia Venus,VACV mCherry inh
CN(C)S(=O)(=O)c1cccc(C(=O)N2CCc3ccccc32)c1,-12%,-10%
Cc1cc(NC(=O)COC(=O)[C@H](Cc2c[nH]c3ccccc23)NC(=O)c2ccc(F)cc2)no1,1%,-10%
CCOc1ccc(Nc2nc(N)c3ccccc3n2)cc1,?,?
NC(=O)C1CCCN(C(=O)CNC(=O)C23CC4CC(CC(C4)C2)C3)C1 (centres undefined),-9%,i
Cc1ccccc1NC(=O)/C(C#N)=C\c1cn(CC(=O)O)c2ccccc12,-15%,-1%
OC[C@@H]1CN(Cc2ccco2)C[C@H](n2cnc3c(NC4CC4)ncnc32)O1,1%,53%[activator]
CNc1cc(-c2cnn(CC(C)C)c2)ncn1,-7%,i
Cc1cccc(-c2c(O)cc(=O)[nH]c2Cl)c1,-1%,-8%
CCOC(=O)C1CCCN(C(=O)c2ccc(NC(=O)c3nsc4ccccc34)cc2)C1 (centres undefined),-15%,0%
C[C@]1(CC/C(=C/CO)CO)[C@H](CO)CC[C@@]23COC(=O)C2=CCC[C@@H]31,4%,18%
CCOc1ccc(S(=O)(=O)N(CC(=O)NCc2cccnc2)c2ccc(C)cc2)cc1,-5%,4%
Cc1ccccc1Cn1ccc(NC(=O)c2nn3cccnc3c2Cl)n1,11%,-12%
O=C(O)[C@@H](c1ccccc1)N1Cc2ccccc2C1=O,-6%,-11%
CC(=O)C[C@@H](O)CC(=O)[C@H]1OC(=O)[C@H](C)C/C=C\Cc2ccccc21,-1%,-12%
Cc1ccc(OC(C)C(=O)N2CCc3ccccc32)cc1 (centres undefined),-6%,/
O=C1c2c(-c3ccc(Br)cc3)noc2CCN1Cc1cn(Cc2ccccc2)nn1,-18%,-15%
CCc1ccc(NC(=O)c2cc(S(=O)(=O)N3CCCCCC3)ccc2F)cc1,-18%,-21%
COc1cccc(C(=O)Nc2ccc(S(=O)(=O)N(Cc3ccccc3)c3ccccc3)cc2)c1,-23%,?
Cn1ccc2c(OCC(=O)Nc3cc(C(F)(F)F)ccc3Cl)cccc2c1=O,-15%,-19%
C=CCC[C@H](Cc1ccc(F)cc1)C(=O)OC[C@@H](Cc1c[nH]c2ccccc12)NC(=O)[C@@H](CC=C)CC(=O)N[C@@H](CO)Cc1ccccc1,?,-20%
Cc1ccc(Cl)c(OCCCN(C)Cc2ccccc2)c1,-1%,-9%
Nc1ncnc2c1ncn2[C@@H]1O[C@H](CNC(=O)[C@H](N)Cc2cccnc2)[C@@H](O)[C@H]1O,9%,7%
CCn1cc(C(=O)NCc2ccccc2)c2ccccc21,8%,-3%
Cc1c(C(=O)Nc2cccc(C(F)(F)F)c2)oc2ccc3c(c12)C(=O)CC(C)(C)O3,-1%,-1%
COc1ccc(Nc2nc(C)c3ccccc3n2)cc1,-20%,-29%
O=C(O/N=C\c1ccc(N2CCCCC2)c([N+](=O)[O-])c1)c1cccc(C(F)(F)F)c1,2%,-3%
O=C(c1ccc(F)cc1)N1CCC(C(=O)N2CCN(S(=O)(=O)c3cccc(F)c3)CC2)CC1,-12%,-14%
Cn1c(=O)n(CC(N)=O)c2ccccc21,-4%,/
OC(CNC1CCCC1)COCCOc1ccc(Br)cc1 (centres undefined),-9%,-14%
CS(=O)(=O)c1ccc(S(=O)CC(=O)Oc2ccc(Cl)cc2)c([N+](=O)[O-])c1 (centres undefined),-10%,?
Fc1cccc(Cl)c1CNc1n[nH]c(-c2ccco2)n1,-19%,-15%
O=c1c(-c2cccnc2)nc2ccccc2n1C(c1ccccn1)c1nc2ccccc2[nH]1 (centres undefined),-2%,?
N#Cc1ccccc1NC(=O)Nc1ccccc1,-5%,i
O=C(NCc1ccco1)c1ccc(C(F)(F)F)cc1,3%,-1%
COc1ccc(/C=C/c2ccccn2)cc1,?,?
O=C(NC1CCCCC1)C(c1ccc2ncccc2c1)N(Cc1ccc(F)cc1)C(=O)c1ccc2c(c1)OCCO2 (centres undefined),-11%,-22%
CCOc1cc(C(=O)N2CC(=O)Nc3ccc(C)cc3C2c2ccccc2)cc(OCC)c1OCC (centres undefined),-6%,i
CC1=CC(C)(C)NC(=S)N1c1cccc(C)c1,-2%&-13%,-14%&-1%
COc1ccc(C(=O)NCC(=O)OCC(=O)N2CCc3ccccc32)cc1,6%,-7%
O=C(O)CCCn1cc(NC(=O)c2ccc(F)cc2)cn1,-7%,-3%
CCOc1ccc(-c2cc(CCCC(=O)NCc3ccc(C)cc3)no2)cc1,-6%,-27%
Cc1cccc(C)c1NC(=O)C(c1ccnc2ccccc12)N1CCN(C)CC1 (centres undefined),-10%,i
Cc1ccc(N2C(=O)[C@@H]3[C@H](C2=O)C2c4ccccc4C=CN2[C@@H]3C(=O)c2ccco2)c(C)c1 (some centres undefined),-1%,/
CC12CCCC[C@@H]1CCC1C2CCC2(C)C1CC[C@@]2(O)CNCCO (some centres undefined),0%,?
C=CCn1c(=N)c(C(=O)NCCCOC)cc2c(=O)n3cccc(C)c3nc21,2%,/
CCOC(=O)N=Nc1c(O)n(CC(=O)OC)c2ccccc12,-12%,-5%
COC(=O)c1ccc2c(c1)N(C)CCS2,0%,-6%
Cc1cc(NC(=O)CCC(=O)N(Cc2ccco2)C(C(=O)NCC2CCCO2)c2ccncc2)no1 (centres undefined),-6%,i
O=C(CN(C(=O)CNS(=O)(=O)c1ccc(F)cc1)c1cccc(F)c1)NCC1CCCO1 (centres undefined),-6%,-11%
Cc1ccc(C(=O)N/C(=C\c2ccccc2)C(=O)OCc2ccccc2)cc1,-22%,-24%

Following part:
smiles,Vaccinia Venus,VACV mCherry inh
CCOC(=O)c1coc(C(=O)OCC)c1C(=O)OCC,-2%,i
Cc1ccc(CNC(=O)CCC(=O)N2CC(C)Oc3ccc(Cl)cc32)cc1 (centres undefined),5%,i
O=C(CN(Cc1ccccc1Cl)C(=O)c1csnn1)NC1CCCC1,-7%,-13%
O=C(Oc1cncc(Cl)c1)c1sccc1Cl,-10%,?
C=CCn1c(-c2ccccc2)cc(SC)c(C#N)c1=O,-6%,i
O=C1CSC(=S)N1/N=C/c1c(F)cccc1F,10%,-27%
Cc1nc2c(OCc3cccc(Cl)c3)cccn2c1N(C)CC1CC1,-28%,-4%
COc1ccc(OC)c(CCNC(=O)C(C)n2nc(C)c3c(C)n(-c4ccc(C)cc4)nc3c2=O)c1 (centres undefined),-28%[7.34 µM],-22%[7.34 µM]
O=C(CNC(=O)C1CCCCC1)OCc1ccccc1,15%,23%
CC(O)(c1ccccc1)C(c1ccccc1)C1CCCCN1 (centres undefined),0%[7.34 µM],i[7.34 µM]
CC(=O)c1cccc(NC(=O)N2CCCC2C(=O)Nc2ccccc2C)c1 (centres undefined),-5%,-8%
Cc1nn(C)c2c1c(-c1ccccc1)cc(=O)n2CC(=O)NC(C)c1ccccc1 (centres undefined),4%,1%
CCOC(=O)c1ccc(NC(=O)CC2Nc3cccc4cccc(c34)NC2=O)cc1 (centres undefined),1%[7.34 µM],-2%[7.34 µM]
COc1ccc(-c2noc(CCC(=O)N3CCN(c4ccccc4F)CC3)n2)cc1,0%,i
Fc1ccc(N2CCN(Cc3cn[nH]c3-c3ccccc3)CC2)cc1,-15%,-21%
CC(=O)N(c1ccc(C)cc1)c1nc(C)cc(C)c1C#N,-10%,-9%
S=C(NCc1ccco1)N1CCN(Cc2ccc(Cl)cc2Cl)CC1,-28%,/
CCOC(=O)c1cc2c(ccn2C)n1CC(=O)N1CCN(c2ccc(F)cc2)CC1,-15%,-18%
CCOc1ccc(CN2C(=O)c3ccccc3Sc3ccc(C(=O)NCCc4ccccc4)cc32)cc1,-5%,-10%
CCOc1ccc(CNC(=O)c2ccc(NC(=O)N3CCCCc4ccccc43)cc2)cc1OC,2%,-2%
CCN(CC)Cc1cc(CCNC(=O)c2ccc(Cl)cc2)ccc1O,-11%,i
Cc1ccc(-c2cc(C(=O)Oc3ccccc3Cl)no2)cc1C,-12%,-13%
CC(=O)Nc1ccc(-c2ccnc3c2CC(C)(C(=O)Nc2ccc(F)c(Cl)c2)O3)cc1 (centres undefined),-23%,-1%
Cc1cc(N/N=C/c2cccc(F)c2)nc(NCc2ccccc2)n1,?,?
COc1ccc(OC(=O)CN2C(=O)C3C4CCC(C4)C3C2=O)cc1 (centres undefined),-7%,-12%
COC1=C(Br)C(=O)c2nc(C)ccc2C1=O,-24%,-6%
CCOC(=O)c1cc(-c2ccc(F)cc2)nc2c1c(=O)[nH]c(=O)n2Cc1ccccc1,-5%,-7%
Cc1ccc(NS(=O)(=O)c2ccc3c(c2)NC(=O)CCS3)cc1C,0.89µM*,?
CN(C)CCCNc1ncnc2c1cnn2Cc1ccccc1Cl,-16%,-8%
CCOC1=C2CN(S(=O)(=O)c3ccc(C)cc3)[C@H](c3ccccc3)C[C@H]2n2c(=O)n(-c3ccccc3)c(=O)n2C1,6%,40%[activator]
C[C@@H]1C(=O)O[C@H]2C[C@@]34[C@H]5C[C@@H](C(C)(C)C)[C@]36[C@@H](OC(=O)[C@@H]6O)O[C@@]4(C(=O)O5)[C@]21O,-12%,-8%
O=S(=O)(Nc1c(O)ccc2ccccc12)c1ccc(F)cc1,8%,-7%
COc1ccc([C@@H]2[C@@H]3C(=O)N(C(C)(C)C)C(=O)[C@@H]3[C@]3(C)C(=O)N(c4ccc(C)cc4)C(=O)N23)cc1,-8%,-15%
CCCCSc1ncnc2c1sc1nc(N3CCOCC3)c3c(c12)CCCC3,-3%,-5%
CC(=O)Nc1cc2c(cc1Cl)-c1ccccc1C2O (centres undefined),-10%,?

Assay outcomes: PubChem BioAssay, National Center for Advancing Translational Sciences (NCATS)

No enrichment for hits. About 0.87% of those tested had a hit in this group.
